Screening results from PubChem BioAssay.
rRNA inh HTS: reduced GFP signal of wild-type E. coli, primary screen, bacterial rRNA inhibitor project, GFP/RFP fluorescence, OD600, single point | 350,000 compounds, 1.6% hits | E. coli WT GFP vs humanized-ribosome RFP mutants, 24 h; hits give low values; DMSO median 0, no signal -100 | GFP signal change (wild-type ribosome), % (test concentration not listed) | AID 720706, 2013;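 active = significant combined selectivity score with lowered wild-type GFP, culture density cut under 30%, mutant RFP and density less affected; inactive = any of these conditions unmet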; also: one replicate is shown; some compounds called inactive have numbers as strong as hits
rRNA inh HTS OD600: also measured in rRNA inh HTS; calls as there; OD600 change, %; measured here: OD600 growth;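 optical density of the mix in the first replicate; 0 = DMSO median and -100 = no signal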
rRNA inh HTS RFP: recorded beside rRNA inh HTS, whose call it bears; RFP signal change, %; measured here: RFP humanized mutant strains;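 first replicate; 0 = DMSO median and -100 = no signal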
* hit, by the source's call; & = joins results of further samples. Not all compounds are listed (hit frequency here may not be typical).

no.	SMILES	rRNA inh HTS	rRNA inh HTS OD600	rRNA inh HTS RFP
1	C[C@H]1CN([C@@H](C)CO)C(=O)c2cc(NC(=O)C3CCCCC3)ccc2O[C@H]1CN(C)Cc1ccc(C(=O)O)cc1	4	4	0.4
2	CC(C)NC(=O)N[C@@H]1CC[C@H](CCn2cc(-c3ccc(F)cc3)nn2)O[C@H]1CO	-3	11	-4.0
3	C[C@H]1CN([C@@H](C)CO)C(=O)c2cc(C#CC3CCCC3)cnc2O[C@@H]1CN(C)C(=O)C1CC1	-2	-9	-3.0
4	CC(C)NC(=O)Nc1ccc2c(c1)C(=O)N([C@H](C)CO)C[C@H](C)[C@H](CN(C)S(=O)(=O)c1ccc(Cl)cc1)OCCCC[C@H](C)O2	0	-1	1.0
5	CC1=C(C(=O)N2CCOCC2)CC(CC(=O)NCCc2ccccn2)C(=O)N1Cc1ccc(F)cc1 (stereo unspecified)	24	18	5.5
6	C[C@@H]1CCCCO[C@@H](CN(C)C(=O)Nc2ccc(F)cc2)[C@H](C)CN([C@@H](C)CO)C(=O)c2cc(NC(=O)c3ccncc3)ccc2O1	-1	-7	-1.4
7	Cc1ccsc1C(=O)N1CCCC(C)(C(=O)NS(=O)(=O)C2CC2)C1 (stereo unspecified)	7	-10	1.2
8	O=C(C[C@@H]1C[C@H]2c3cc(NC(=O)Nc4ccc(C(F)(F)F)cc4)ccc3O[C@H]2[C@H](CO)O1)NCc1ccccn1	-52	-73	-1.2
9	C[C@@H]1CN([C@H](C)CO)C(=O)c2cc(NC(=O)Nc3cccc4ccccc34)ccc2O[C@H]1CN(C)Cc1ccncc1	-5	-17	-0.5
10	N#C[C@H]1[C@H](c2ccccc2)[C@H](CO)N1C(=O)c1cc(Cl)cc(Cl)c1	1	12	1.2
11	Nc1ccn([C@@H]2O[C@H](C(=O)N[C@H](Cc3ccccc3)C(=O)NCC(F)(F)F)[C@@H](O)[C@H]2O)c(=O)n1	18	10	1.8
12	O=C(NC1CCCC1)C1C(c2ccc(C(F)(F)F)cc2)=Nc2ccccc2N1C(=O)c1cc2ccccc2[nH]1 (stereo unspecified)	3	9	-2.0
13	C[C@H](CO)N1C[C@H](C)[C@H](CN(C)S(=O)(=O)c2ccccc2)Oc2c(NC(=O)c3ccc(-c4nccs4)cc3)cccc2C1=O	-2	-8	-1.7
14	CO[C@@H]1CN(C)C(=O)c2ccc(NC(=O)c3cccc(F)c3)cc2OC[C@@H](C)NC[C@@H]1C	0	3	-4.4
15	C[C@H](CO)N1C[C@H](C)[C@@H](CN(C)Cc2ccncc2)Oc2c(NC(=O)Nc3ccccc3)cccc2C1=O	-1	-4	0.4
16	O=C(C1CCOCC1)N1CC(=O)N2[C@H](CO)[C@@H](c3ccc(C#CC4CCCCC4)cc3)[C@@H]2C1	2	6	1.5
17	C[C@H](CO)N1C[C@H](C)[C@@H](CN(C)Cc2ccncc2)Oc2ccc(NC(=O)C3CCCCC3)cc2CC1=O	-1	2	0.2
18	C[C@@H]1CN([C@H](C)CO)C(=O)c2cc(N(C)C)ccc2O[C@@H](C)CCCCO[C@@H]1CN(C)C	1	-7	-1.9
19	O=C(C[C@@H]1CC[C@@H]2[C@H](COC[C@H](O)CN2S(=O)(=O)c2ccc(Cl)cc2)O1)N[C@@H]1CCN(Cc2ccccc2)C1	-8	-14	-2.6
20	CNC[C@@H]1Oc2ccc(NS(=O)(=O)c3ccc(Cl)cc3)cc2C(=O)N([C@@H](C)CO)C[C@H]1C	6	-2	0.0
21	Cc1noc(C)c1NC(=O)N(C)C[C@H]1Oc2c(NC(=O)c3ccc(-c4nccs4)cc3)cccc2C(=O)N([C@H](C)CO)C[C@H]1C	0	13	2.0
22	C[C@H]1CN([C@@H](C)CO)C(=O)c2cc(C#Cc3ccccc3F)cnc2O[C@@H]1CN(C)S(=O)(=O)c1ccccc1F	-5	-4	-1.1
23	COC1=CC(=O)OC(c2cccc(Cl)c2)C1 (stereo unspecified)	2	8	2.7
24	O=Cc1coc([B-](F)(F)F)c1	5	11	1.0
25	CN(C)C(=O)c1ccc(-c2cccc(-c3nc(C(=O)NC4CCCC4)cc4c3[C@@H](CCO)N([S@](=O)C(C)(C)C)C4)c2)cc1	0	4	12
26	C[C@H](CO)N1C[C@H](C)[C@@H](CN(C)C(=O)CCCN(C)C)OCc2cnnn2CCCC1=O	-1	2	-0.2
27	C[C@H](CO)N1C[C@H](C)[C@@H](CN(C)S(C)(=O)=O)Oc2cc(C#CCN(C)C)ccc2S1(=O)=O	0	0	1.0
28	CCCC#Cc1ccc([C@@H]2[C@@H](CO)N3CCCCN(Cc4ccncc4)C[C@@H]23)cc1	2	-8	11
29	COc1cccc(S(=O)(=O)Nc2ccc3c(c2)[C@H]2C[C@@H](CC(=O)N4CCCCC4)O[C@@H](CO)[C@H]2O3)c1	0	8	-3.7
30	C[C@H]1CN([C@@H](C)CO)C(=O)c2cc(C#CCc3ccccc3)cnc2O[C@@H]1CN(C)C(=O)C1CCC1	-1	-9	0.9
31	CCCCNC(=O)C1C(c2ccc(C(F)(F)F)cc2)=Nc2ccccc2N1C(=O)C1CCN(C(C)=O)CC1 (stereo unspecified)	-12	-26	2.2
32	CN(C)CCCNC(=O)C[C@@H]1C=C[C@@H](NS(=O)(=O)c2ccc(F)cc2)[C@@H](CO)O1	4	5	-1.6
33	CO[C@H]1CN(C)C(=O)c2ccc(NC(C)=O)cc2OC[C@@H](C)N(C(=O)CC2CC2)C[C@@H]1C	1	4	3.6
34	CCCC(=O)Nc1ccc2c(c1)OC[C@H](C)N(Cc1ccccc1)C[C@H](C)[C@H](OC)CN(C)C2=O	-1	-5	-0.6
35	COCC(=O)Nc1ccc2c(c1)C(=O)N(C)C[C@H](OC)[C@@H](C)CN(C(=O)c1ccncc1)[C@H](C)CO2	0	6	0.7
36	COc1cccc(CN2CCC3(CC2)CN(C(=O)C2CC2)[C@H](CO)c2c3c3ccc(OC)cc3n2C)c1	0	11	-0.7
37	C[C@@H]1NS(=O)(=O)c2c(F)cccc2O[C@@H]1c1ccccc1	-22*	-13*	-0.8*
38	CO[C@H]1CN(C)C(=O)c2ccc(NC(=O)Nc3ccccc3)cc2OC[C@@H](C)N(C(=O)CN(C)C)C[C@H]1C	-3	-2	1.9
39	CO[C@@H]1CN(C)C(=O)c2ccc(NC(=O)c3cnccn3)cc2OC[C@H](C)N(C)C[C@@H]1C	3	3	-0.7
40	C/C=C/c1ccc([C@@H]2[C@H](CO)N3C(=O)CN(Cc4ccc(C)cc4)C[C@@H]23)cc1	0	-3	-1.1
41	O=C(c1cnccn1)N1CC(=O)N2[C@@H](CO)[C@H](c3ccc(-c4cccc(F)c4)cc3)[C@@H]2C1	3	7	-3.7
42	O=C(C[C@@H]1CC[C@H]2[C@@H](COC[C@H](O)CN2Cc2ccncc2)O1)NCc1ccncc1	5	11	-3.3
43	CO[C@H]1CN(C)C(=O)c2ccc(NC(=O)C3CCC3)cc2OC[C@H](C)N(CC2CCCCC2)C[C@@H]1C	8&4	-22&-11	6.8&3.2
44	Cc1ccc(C2c3c(n[nH]c3C)C(=O)N2Cc2ccccc2)cc1 (stereo unspecified)	1	-9	-5.9
45	CCCNC(=O)N1C[C@H](C)[C@H](OC)CN(C)C(=O)c2ccc(NS(C)(=O)=O)cc2OC[C@H]1C	3	3	-1.8
46	COCC#Cc1cnc2c(c1)C(=O)N([C@@H](C)CO)C[C@H](C)[C@H](CN(C)Cc1ccccc1)O2	2	-7	-2.7
47	O=S1(=O)N[C@@H](Cc2ccccc2)COc2cc(N3CCN(Cc4ccccc4F)CC3)ccc21	7	7	4.3
48	Cc1noc(C)c1NC(=O)Nc1ccc2c(c1)C(=O)N([C@@H](C)CO)C[C@H](C)[C@H](CN(C)C(=O)Nc1ccccc1)OCCCC[C@H](C)O2	0	-8	-1.0
49	N#C[C@H]1[C@@H](c2ccccc2C2=CCCCC2)[C@H](CO)N1C(=O)c1cccc(F)c1	-43	-68	-7.0
50	Cc1ccc(S(=O)(=O)N(C)C[C@H]2Oc3ccc(NC(=O)Cn4cnnn4)cc3CC(=O)N([C@@H](C)CO)C[C@H]2C)cc1	2	9	-3.7
51	CCC(=O)N1C[C@H](C)[C@@H](OC)CN(C)C(=O)c2ccc(NC(=O)Nc3cccc(F)c3)cc2OC[C@H]1C	-5	-1	1.9
52	C[C@H]1CN([C@@H](C)CO)C(=O)Cc2cc(NC(=O)Nc3ccccc3)ccc2O[C@@H]1CN(C)S(=O)(=O)c1ccc(Cl)cc1	1	4	2.2
53	OCCN1CCN(c2ncnc3c2ncn3[C@H]2CN(Cc3cccc(C(F)(F)F)c3)C[C@@H](CO)O2)CC1	-2	1	-3.5
54	CCC(=O)N1C[C@@H](C)[C@@H](OC)CN(C)C(=O)c2cc(NC(=O)Nc3cccc(F)c3)ccc2OC[C@@H]1C	-5	-11	2.6
55	C=C(C)Cn1c2ccc(NC(=O)CCOCC)cc2c(=O)n1C	6	9	3.4
56	C[C@@H]1CN([C@@H](C)CO)C(=O)CCCn2nncc2CO[C@@H]1CN(C)S(=O)(=O)c1ccc(-c2ccccc2)cc1	1&-5	2&-16	11&7.4
57	Cc1noc(C)c1NC(=O)Nc1cccc2c1O[C@H](CN(C)Cc1ccc3c(c1)OCO3)[C@@H](C)CN([C@H](C)CO)C2=O	-3	0	-1.3
58	C[C@@H]1CN([C@@H](C)CO)S(=O)(=O)c2ccc(-c3cccc(C#N)c3)cc2O[C@@H]1CN(C)C(=O)Nc1cc(F)ccc1F	0	0	0.2
59	O=C(C[C@H]1CC[C@H]2[C@@H](COC[C@H](O)CN2Cc2nccs2)O1)NCc1ccc(F)cc1	2	-9	-1.9
60	COCC(=O)N(C)C[C@@H]1Oc2ncc(-c3ccccc3OC)cc2C(=O)N([C@@H](C)CO)C[C@H]1C	4	8	-4.8

Entries shown so far containing a cyano group, in the order listed:
no.	SMILES	rRNA inh HTS	rRNA inh HTS OD600	rRNA inh HTS RFP
10	N#C[C@H]1[C@H](c2ccccc2)[C@H](CO)N1C(=O)c1cc(Cl)cc(Cl)c1	1	12	1.2
49	N#C[C@H]1[C@@H](c2ccccc2C2=CCCCC2)[C@H](CO)N1C(=O)c1cccc(F)c1	-43	-68	-7.0
58	C[C@@H]1CN([C@@H](C)CO)S(=O)(=O)c2ccc(-c3cccc(C#N)c3)cc2O[C@@H]1CN(C)C(=O)Nc1cc(F)ccc1F	0	0	0.2

3 entries picked at random from the list so far:
no.	SMILES	rRNA inh HTS	rRNA inh HTS OD600	rRNA inh HTS RFP
52	C[C@H]1CN([C@@H](C)CO)C(=O)Cc2cc(NC(=O)Nc3ccccc3)ccc2O[C@@H]1CN(C)S(=O)(=O)c1ccc(Cl)cc1	1	4	2.2
53	OCCN1CCN(c2ncnc3c2ncn3[C@H]2CN(Cc3cccc(C(F)(F)F)c3)C[C@@H](CO)O2)CC1	-2	1	-3.5
32	CN(C)CCCNC(=O)C[C@@H]1C=C[C@@H](NS(=O)(=O)c2ccc(F)cc2)[C@@H](CO)O1	4	5	-1.6

Other compounds
no.	SMILES	rRNA inh HTS	rRNA inh HTS OD600	rRNA inh HTS RFP
61	CS(=O)(=O)Nc1ccc2c(c1)[C@H]1C[C@@H](CC(=O)NCc3cccnc3)O[C@@H](CO)[C@H]1O2	-2	0	-2.1
62	COc1ccc(NC(=O)N[C@@H]2CC[C@H](CCn3cc(-c4ccccn4)nn3)O[C@@H]2CO)cc1	-2	-3	-1.9
63	C[C@H](CO)N1C[C@H](C)[C@H](CN(C)Cc2ccc(-c3ccccc3)cc2)Oc2c(NC(=O)C3CC3)cccc2C1=O	-3	-10	2.9
64	Cc1noc(C)c1S(=O)(=O)N(C)C[C@H]1OCCCC[C@@H](C)Oc2ccc(NS(=O)(=O)c3cccs3)cc2C(=O)N([C@@H](C)CO)C[C@@H]1C	2	1	5.3
65	CN(C)CC#Cc1ccc([C@H]2[C@@H](CO)N3CCCCN(S(=O)(=O)c4ccccc4F)C[C@@H]23)cc1	-8	-18	1.0
66	CO[C@H]1CN(C)C(=O)c2cc(NC(=O)c3cnccn3)ccc2OC[C@@H](C)N(CC2CC2)C[C@@H]1C	2	-3	-2.3
67	Cc1ccccc1S(=O)(=O)NCC[C@H]1CC[C@@H](NC(=O)C2CC2)[C@H](CO)O1	1	10	-0.2
68	C[C@@H]1CN([C@H](C)CO)C(=O)c2cc(C3=CCCC3)cnc2O[C@H]1CN(C)C(=O)Cc1ccncc1	5	-4	-3.4
69	COc1cccc(-c2ccc3c(c2)O[C@H](CN(C)Cc2ccncc2)[C@H](C)CN([C@H](C)CO)S3(=O)=O)c1	-30	-50	1.3
70	COc1ccc(S(=O)(=O)Nc2ccc3c(c2)C(=O)N(C)C[C@@H](OC)[C@H](C)CN[C@@H](C)CO3)cc1	1	-1	-2.0
71	CCCNC(=O)N1[C@H](CO)[C@@H](c2ccccc2)[C@H]1CNC(=O)c1ccc(F)cc1	-12	-7	0.6
72	COc1ccc(C#Cc2ccc3c(c2)[C@@H]2[C@@H](CCN2C(=O)c2ccccc2F)[C@@H](CO)N3C)cc1	3	16	-7.3
73	CCCCNC(=O)C1(C)CCCCN1C(=O)c1cc(-c2ccccc2)cs1 (stereo unspecified)	-6	-51	-3.3
74	C[C@@H]1CN([C@H](C)CO)C(=O)c2cccc(NC(=O)c3nc4ccccc4s3)c2O[C@@H]1CN(C)C(=O)Nc1ccc(F)cc1	-7	-11	4.0
75	COc1ccc2c3c(n(C)c2c1)[C@@H](CO)N(C(=O)c1cnccn1)CC31CN(C(=O)c2cnccn2)C1	-1	-3	-2.1
76	CN1CCC(N2CCN(C3CN(Cc4cn(Cc5ccc(F)cc5)nn4)S(=O)(=O)C3)CC2)CC1 (stereo unspecified)	11	6	1.5
